Compound activity as filed in PubChem.
Ab BasE inh: BasE siderophore enzyme inhibitors, primary screen, biochemical, Acinetobacter baumannii ATCC 17978, fluorescence polarization; purified BasE, fluorescence polarization binding displacement; inhibition, % (test concentration not listed); hit rate 0.1% among 84,000; AID 485350, 2010;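 active = both replicates above 25% with normal brightness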;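 also: 0% = negative plate control signal and 100% = positive plate control signal; stock transfer was 100 nL into about 30 µL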
KSHV LANA nucl: inhibitors of KSHV LANA-nucleosome binding, primary screen, biochemical, fluorescence polarization, FITC-LANA1-23, chicken nucleosomes; FITC-LANA1-23 / chicken nucleosome fluorescence polarization; hits give low values; z-score (test concentration not listed); hit rate 0.3% among 51,000; AID 720717, 2013;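 active = both repeat wells score below -2 in polarization z-score versus plate sample wells, excluding overly bright wells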;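 also: 100 nL library stock added to about 30 µL; numbers are from one replicate; some results filed as inactive read as strong as hits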
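System – purified chicken nucleosomes with FITC-labelled LANA N-terminal peptide (1-23) · Amount – 240 nM purified chicken nucleosomes (480 nM peptide binding sites), final · Also added – 50 nM FITC-LANA1-23 probe · Medium – TEN-BT buffer, pH 7.5 · Incubation – compound with peptide–nucleosome mix 10–45 min at room temperature · Detection – fluorescence polarization, ex 480 nm, em 535 nm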
* hit, by the source's call; nt = not tested or not shown. Not all compounds are listed. The share of hits here may be higher or lower than overall.

The opening 3 entries as a preview:
SMILES	Ab BasE inh	KSHV LANA nucl
CC(=O)Nc1cccc(C(=O)OCC(=O)Nc2nnc(-c3ccccc3)o2)c1	-1.7	nt
COCCOC(=O)c1c(C)oc2ccc(NS(=O)(=O)c3c(C)cc(C)cc3C)cc12	0.1	1.7
O=C(OCC(=O)N1CCc2ccccc21)c1ccccc1C(=O)N1CCN(c2ccc(F)cc2)CC1	-3.4	nt

Results (from the top)
SMILES	Ab BasE inh	KSHV LANA nucl
CC(=O)Nc1cccc(C(=O)OCC(=O)Nc2nnc(-c3ccccc3)o2)c1	-1.7	nt
COCCOC(=O)c1c(C)oc2ccc(NS(=O)(=O)c3c(C)cc(C)cc3C)cc12	0.1	1.7
O=C(OCC(=O)N1CCc2ccccc21)c1ccccc1C(=O)N1CCN(c2ccc(F)cc2)CC1	-3.4	nt
COC(=O)C1=C(CSc2nccn2C)NC(=O)NC1c1ccc(OC)cc1 (stereo unspecified)	1.0	0.042
O=C(CSc1nnc(NC2CC2)s1)c1ccc[nH]1	1.4	nt
CCc1ccccc1NC(=O)C(Cc1cccc(OC)c1)c1nn[nH]n1 (stereo unspecified)	2.4	-0.65
CSc1nnc2ccc(-c3cccnc3)nn12	-3.0	2.2
COc1ccc(C(=O)CS(C)(=O)=O)cc1	nt	0.53
COc1ccccc1NCCC(=O)Nc1cccc(C)c1C	0.1	nt
Clc1cccc(Cl)c1CSCc1cc2ccccc2o1	1.8	nt
Cc1cc(C)n(CCc2nnc(N)s2)n1	0.9	-0.99
Cn1c(=O)n(C)c2cc(CNC3CCCCC3)ccc21	-1.7	-0.88
COc1ccc(-c2nnc(SCC(=O)N3CCC(c4ccccc4)=N3)n2CC2CCCO2)cc1 (stereo unspecified)	-2.2	nt
COc1ccccc1OCc1nnc(SCC(=O)N2CCc3ccccc3C2)n1C	2.3	-1.3
O=CN1CCN(C(=O)C(Cc2c[nH]c3ccccc23)NC(=O)c2cccs2)CC1 (stereo unspecified)	1.2	nt

Overlap with the part before: two entries; new compounds follow.
SMILES	Ab BasE inh	KSHV LANA nucl
COc1ccccc1OCc1nnc(SCC(=O)N2CCc3ccccc3C2)n1C	2.3	-1.3
O=CN1CCN(C(=O)C(Cc2c[nH]c3ccccc23)NC(=O)c2cccs2)CC1 (stereo unspecified)	1.2	nt
CN1CCN(C)C1=O	0.9	nt
O=C(CN1C(=O)c2ccccc2C1=O)Nc1ccccc1C(=O)O	1.9	0.44
O=C(CSC1=NCCc2ccccc21)c1ccccc1Cl	-4.0	nt
O=C(CSc1ccc(-c2ccccn2)nn1)Nc1ccccc1	-1.0	-0.35
C=CCn1c(SCC(=O)Nc2nc(C)c(C)s2)nnc1-c1cc2cccc(OC)c2o1	1.9	0.83
COc1ccc(C(=O)NCCc2nc(-c3ccccc3Cl)no2)cc1OC	-2.4	-0.85
O=C(NC1CCCCC1)C1CC(c2ccccc2O)=NO1 (stereo unspecified)	1.1	-1.2
O=C(COC(=O)C1CC(=O)N(Cc2ccccc2)C1)Nc1ccc(Cl)cc1F (stereo unspecified)	1.5	nt
Cc1ccc2cc3cc(C(=O)NCCCN4CCN(Cc5ccccc5)CC4)oc3nc2c1	0.8	-0.58
COc1ccccc1C(=O)Nc1ccc(C(O)(C(F)(F)F)C(F)(F)F)cc1	-0.4	0.22
CNC(=S)N1CCN(C(c2ccccc2)c2ccccc2)CC1	0.0	-0.06
O=C(Cc1noc2ccccc12)NCc1ccccc1	1.4	-0.59
O=C1CCCN1c1ccc(S(=O)O)cc1	0.2	-0.32
Cc1cc(-c2csc(NC3=NCCCCC3)n2)c(C)n1Cc1ccccc1	0.6	nt
O=C1C2C3C=CC(C3)C2C(=O)N1/N=C/c1ccccc1O (stereo unspecified)	2.0	nt
O=c1[nH]nc(-c2cccs2)cc1CC1CCCCC1	1.1	nt
O=C(CN1CCN(c2cccc(Cl)c2)CC1)NC1CCCc2ccccc21 (stereo unspecified)	0.4	nt
COc1cn(-c2ccccc2)nc1C(=O)NCc1ccc(C)cc1	-3.3	nt
O=C1CS(=O)(=O)C(c2cccs2)N1CC1CC1 (stereo unspecified)	nt	0.77
O=C1/C(=C\c2cccs2)SC(=S)N1c1ccccc1	1.1	nt
CC(C)n1nnnc1SCC(=O)c1ccc2c(c1)OCCO2	3.0	0.73
CCn1c(=O)c(=O)[nH]c2cc(C(=O)NC3CCCc4ccccc43)ccc21 (stereo unspecified)	0.8	nt
CCN1CCN(c2ncnc3sc(C(=O)N4CCCC4)c(C)c23)CC1	1.5	-1.5
CCOC(=O)C(Cc1ccccc1)N1C(=O)c2ccccc2C1=O (stereo unspecified)	1.1	-0.24
CCC(=O)Nc1cc2nn(-c3ccc(Cl)cc3)nc2cc1C	2.3	-0.52
O=C1CCCN1C(=O)CSc1nnc(-c2ccccc2)c(-c2ccccc2)n1	-0.8	nt
Cc1nc2ccc(S(=O)(=O)NC(CC(C)C)C(=O)NCc3cccs3)cc2s1 (stereo unspecified)	0.9	-1.7
CSc1ccccc1NC(=O)CN1CCN(C(C)=O)CC1	3.3	nt
Cn1cc(S(=O)(=O)N2CCc3ccccc32)cc1C(=O)N1CCOCC1	2.6	0.61
COc1ccc(Cl)cc1N1C(=O)CC(NC(C)(C)C)C1=O (stereo unspecified)	-1.7	0.35
O=C(O)CCN1C(=O)SC(Nc2ccc(Cl)cc2)C1=O (stereo unspecified)	0.8	-1.4
CSc1sc(C#N)c(C)c1-c1ccn(C(=O)c2ccc(Cl)cc2)n1	0.2	nt
COc1ccc(CN(C)C(=O)c2cccc(C)c2)cc1OC	0.7	nt
O=C(NC1CC1)c1ccc(-c2ccccc2)cc1	0.3	nt
COc1ccc(-n2c(SCC(=O)c3ccc4c(c3)NC(=O)CO4)nc3ccccc3c2=O)cc1OC	-1.0	nt
FC(F)(F)c1cc(C(F)(F)F)n2nc(-c3ccccc3)cc2n1	nt	-0.54
Nc1cc(-c2ccccc2)ccc1O	2.3	nt
CCc1nnc(NC(=O)C2CCCCC2)s1	1.1	-0.11
CC(C)(C)C(=O)NC(c1ccccc1)c1c(O)ccc2ccccc12 (stereo unspecified)	-0.5	nt
O=C(O)C1CCN(S(=O)(=O)c2ccc(Cl)cc2)CC1	1.1	nt
CC(C)(C)NC(=O)CCN1C(=O)c2ccccc2S1(=O)=O	2.0	-1
Cc1nn(C)c2[nH]c3c(c(=O)c12)CSC3	1.4	-0.032
O=C(Nc1ccccc1)Nc1ccc(NC(=O)c2ccccc2O)cc1	-3.4	nt
CN(CCOc1ccccc1)Cc1nc2ccsc2c(=O)[nH]1	0.2	nt
CCc1ccc(N(CC(=O)N=Nc2c(O)[nH]c3ccccc23)S(C)(=O)=O)cc1	5.8	-0.079
CC(C(=O)NC1CC2CCC1C2)N(c1ccccc1)S(C)(=O)=O (stereo unspecified)	2.4	-0.74
CCOc1ccc(C(CC(=O)O)N2Cc3ccccc3C2=O)cc1 (stereo unspecified)	nt	1.2
Cc1ccccc1C(=O)NCc1ccc2c(c1)CCO2	-3.4	1.2
CNC1CCC(C(F)(F)F)N(C)C1=O (stereo unspecified)	-0.2	nt
Cc1ccc(NC(=O)CN(C)C(=O)c2cccc(S(=O)(=O)N3CCOCC3)c2)cc1	1.4	nt
CN(C)C(=O)CSc1nnc(Nc2ccccc2)n1-c1ccccc1	4.1	-0.87
CC(OCCCN)c1ccccc1 (stereo unspecified)	0.4	nt
Cc1cc(C)nc(NCn2c(=S)sc3ccccc32)n1	4.4	nt
COc1ccccc1CCN=C(N)NS(C)(=O)=O	-0.4	0.03
CC(C)CNC(=O)c1ccc(N(C)C)cc1	0.6	nt
CCC(C)NC(=O)C1CC1c1ccccc1 (stereo unspecified)	1.4	-0.089
Cc1ccc(S(=O)(=O)NCC(=O)OCc2nnc(-c3ccccc3)o2)cc1C	-1.1	nt
Cc1cc(NS(=O)(=O)c2ccc(N3C(=O)C4C5C=CC(C5)C4C3=O)cc2)nc(C)n1 (stereo unspecified)	2.9	-0.65
COc1ccc(OCCSc2ncccn2)cc1	1.0	-0.91
O=C(CCC1CCCCC1)Nc1cc(Cl)ccc1N1CCOCC1	-0.2	nt

Record cards, from the list above. Order of screens: Ab BasE inh | KSHV LANA nucl
Entry for CNC1CCC(C(F)(F)F)N(C)C1=O (stereo unspecified) : -0.2 | nt
Entry for COc1ccccc1CCN=C(N)NS(C)(=O)=O : -0.4 | 0.03
Entry for Cc1ccc(NC(=O)CN(C)C(=O)c2cccc(S(=O)(=O)N3CCOCC3)c2)cc1 : 1.4 | nt
Entry for Cc1cc(NS(=O)(=O)c2ccc(N3C(=O)C4C5C=CC(C5)C4C3=O)cc2)nc(C)n1 (stereo unspecified) : 2.9 | -0.65
Entry for Cc1ccc(S(=O)(=O)NCC(=O)OCc2nnc(-c3ccccc3)o2)cc1C : -1.1 | nt

The results go on:
SMILES	Ab BasE inh	KSHV LANA nucl
O=C(NCc1ccccn1)c1cc(-c2ccccc2F)no1	20	-0.74
O=C(CSc1nnnn1Cc1ccccc1)NCCc1ccccc1	1.4	0.83
Nc1nccc(-c2ccc(NC(=O)Nc3cccc(Cl)c3)cc2)n1	-0.2	0.077
O=C1c2ccccc2C(=O)N1Cn1ncc(Cl)c(Cl)c1=O	1.1	nt
c1ccc2c(c1)C(=NN1CCOCC1)c1ccccc1-2	1.2	nt
CCN(CC)C(=S)NC(=S)c1ccc(C)cc1	2.4	nt
NCCCn1cncn1	0.3	-1.5
Cc1ccc(OCc2ccc(C(=O)Nc3ncc(Br)s3)o2)cc1C	2.4	-0.14
Cc1nc(=O)cc(-c2ccccc2)n1C	2.5	nt
CNC(=O)c1c(C)nc(SCC(=O)Nc2ccccc2Cc2ccccc2)c(C#N)c1-c1ccco1	0.4	nt
CS(=O)(=O)Nc1ccc(C(=O)NC23CC4CC(CC(C4)C2)C3)cc1	-1.3	-0.43
COc1ccc(-c2cc(-c3ccccc3)c(C#N)c(SCC3(O)CCCCC3S(C)=O)n2)cc1 (stereo unspecified)	0.9	0.028
CN(Cc1ccco1)C(=O)CSc1nnc(Cc2ccccc2)o1	1.2	nt
CN(C)C(=O)COc1ccc2ccc(=O)oc2c1	2.4	nt
C=CCN=C1NN=C(c2cc(C)n(CC=C)c2C)CS1	1.6	nt
CC(=O)Nc1ccccc1OCC(O)CS(=O)(=O)c1ccc(C(F)(F)F)cn1 (stereo unspecified)	2.2	nt
O=C(O)Cc1cc(=O)n(-c2ccccc2)[nH]1	-0.2	nt
COC(=O)c1c(C)nc(C)c(C(=O)OC)c1-c1csc(S(=O)(=O)N2CCOCC2)c1	2.6	0.26
O=c1c2cc(NC(=S)NC3CCN(Cc4ccccc4)CC3)ccc2nc2n1CCCCC2	-2.7	-0.39
CCCN1CCC(NCCc2ccccc2OC)CC1	0.4	-0.51
COc1cc(NC(=O)C2CC3C=CC2C3)cc(OC)c1OC (stereo unspecified)	0.5	nt
C/C(=N\O)c1cc2ccc(O)cc2oc1=O	6.1	nt
Nn1c(-c2cccs2)n[nH]c1=S	0.8	nt
N#CC(C#N)=C(N)COc1cccc(C(F)(F)F)c1	nt	-0.21
O=C(/C=C/c1cccs1)OCC(=O)c1cc2ccccc2o1	-2.3	nt
COC(=O)c1cc(S(=O)(=O)Nc2nn(C)c3ccccc23)oc1C	-0.7	nt
CC1CCCCC1NC(=O)COc1ncnc2sccc12 (stereo unspecified)	2.7	nt
Cc1ccccc1NS(=O)(=O)c1ccc2[nH]cc(C(=O)NC3CCCC3)c(=O)c2c1	-2.9	-0.14
COC(=O)N/N=C\c1c(C)n(C)c2ccccc12	1.6	-0.45
CC(C)C(=O)Nc1c(C(=O)c2ccc(Br)cc2)oc2ccccc12	-1.1	-0.43
C=C(C)CSc1nc(C)cc(C)c1C#N	1.7	-1.1
CCSC1=C(C#N)C(=O)NC(c2ccc(O)cc2)S1 (stereo unspecified)	6.2	-0.68
Cc1nc(-c2ccc(S(=O)(=O)N3CCCN(C(=O)OC(C)(C)C)CC3)s2)cs1	4.0	0.33
O=c1cc(O)c2sc3nc4c(c(C(F)(F)F)c3c2[nH]1)CCC4	-1.4	-0.58
O=C(N/N=C/c1ccccc1)c1cc(-c2ccccc2)n[nH]1	0.0	-0.37
CCOC(=O)c1c(/C=C2\C(=O)Nc3ccccc32)c(C)n(Cc2cccs2)c1C	-0.1	-0.33
O=c1cc(C(F)(F)F)nc2c(-c3ccccc3)c(C(F)(F)F)[nH]n12	4.5	nt
CC(C)Cn1c(SCC(=O)N(C)C2CCCCC2)nc2ccccc2c1=O	-0.7	nt
Cc1ccc(-n2ncc3c(NC(C)C)ncnc32)cc1	-3.9	0.03
Nc1c(-c2ccccc2)cnn1-c1ccc2c(C(F)(F)F)cc(C(F)(F)F)nc2n1	nt	-0.39
CCN1CCN(C(=O)c2sc3nc4n(c(=O)c3c2C)CCC4)CC1	-0.6	0.61
Cc1[nH]n(-c2nc3ccccc3[nH]2)c(=O)c1C1OC(=O)c2ccccc21 (stereo unspecified)	2.4	-0.051
Cc1cccc(NC(=O)Cc2csc(C)n2)c1	-6.2	0.86
Cc1cc(C(=O)NCc2nnc3ccccn23)c(C)o1	3.2	nt
CCCCN1C(=O)c2ccc(C(=O)C(C#N)c3nc4ccccc4[nH]3)cc2C1=O (stereo unspecified)	0.6	nt
COc1ccc(-c2c(C)oc3cc(OCCN4CCOCC4)ccc3c2=O)cc1	2.4	-0.34
Fc1ccc(C2=NNC3=NCCN3C2)cc1F	1.2	nt
O=S(=O)(c1ccccc1)c1nc(-c2ccco2)oc1Nc1ccccc1	2.7	0.31
N#CC1(NC(=O)CSc2nnc(-c3cccs3)n2C2CC2)CCCCC1	-0.6	nt
